SARS PLpro yeast = qHTS of Yeast-based Assay for SARS-CoV PLP; S. cerevisiae expressing SARS-CoV PLpro, growth rescue; control for the full effect not named in the record; Potency, µM (titrated, usually from 32.9 µM), for the others: top-dose activity, positive = growth rescue; hit rate 0.19% among 330,000; AID 485353, 2010; further: 0% is about no effect; nearly all actives have a fitted effect of over 55% in size; growth read by luminescence after 48 h
LASV entry inh = qHTS for Inhibitors of binding or entry into cells for Lassa Virus. Lassa virus pseudotype entry inhibition, cell reporter; control for the full effect not named in the record. Potency, µM (series often up to 37.9 µM), inactives show at the top dose activity change, negative = inhibition, most hits filed as inhibitors. hit rate 1.2% among 300,000. AID 540256, 2011; active means well fitted inhibition curve with a large enough effect; inconclusive means small, poorly fitted or top-dose-only effect, or effect the other way; inactive means flat fitted curve, though single readings scatter; tested in HEK293 cells; further: on the % scale 0 is the no-effect control and ±100 the full control effect; nearly all actives have a fitted effect of over 50% in size; luciferase read-out
NS1 inh = qHTS Assay for Inhibitors of Influenza NS1 Protein Function | Potency, µM (titrated, usually from 46.1 µM), for inactives: at the top dose activity, positive = more growth | hit rate 0.4% among 270,000 | S. cerevisiae slowed by influenza A NS1, growth recovery by OD600 | AID 2326, 2010; further: actives are rising curves; nearly all actives have a fitted effect of over 50% in size
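OD600 was taken as the measure of yeast growth restored by compound in an NS1-expressing S. cerevisiae strain. Cells had been washed out of glucose medium and diluted 1:100 into galactose -URA medium, pH 6.0.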
RE007 growth inh = qHTS Assay for Inhibitors of the HIV-1 protein Vpr. hit rate 0.21% among 360,000. AID 651644, 2012. S. pombe RE007 Vpr strain, BacTiter-Glo ATP luminescence, 24 h; control for the full effect not named in the record. Potency, µM (top dose mostly 92.2 µM), without a hit: at the highest dose activity change, negative = less growth; active = well fitted falling curve with a large enough effect; inconclusive = small, poorly fitted or top-dose-only effect; inactive = no such curve, though single readings can be large or run the other way;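 further: on the % scale 0 is the no-effect control and ±100 the full control effect; nearly all actives have a fitted effect of over 50% in size; the assay follows cell death caused by Vpr and the record does not say whether a fall means rescue or toxicity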
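Fission yeast strain RE007, carrying one chromosomally integrated HIV-1 vpr copy, was seeded at OD 0.01 in PMG+AL medium with 23 nL pinned compound. After 24 h at 30 °C and 99% humidity, viability was read by BacTiter-Glo luminescence.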
StopGo reporter = High Throughput Screening for Foot and Mouth Disease Virus Antivirals | hit rate 1.2% among 410,000 | Potency, µM (series often up to 57.9 µM), for the others: top-dose signal change, negative = less light | human cells with a luciferase reporter of 2A StopGo recoding; control for the full effect not named in the record; active = well fitted falling curve with a large enough effect; inconclusive = small, poorly fitted or top-dose-only effect; inactive = no such curve, though single readings can be large or run the other way; tested in HEK293T cells; further: on the % scale 0 is the no-effect control and ±100 the full control effect; nearly all actives have a fitted effect of over 45% in size; luciferase light after 4 h
Cruzain inh noDet = qHTS Assay for Promiscuous and Specific Inhibitors of Cruzain (without detergent) | Cruzipain (Trypanosoma cruzi), P25779 | purified cruzain, Z-FR-AMC fluorescence, no detergent | Potency, µM, for inactives: max response, negative = inhibition, usual class: inhibitors | hit rate 2.3% among 200,000 | AID 1476, 2009; active means well fitted curve in the direction sought with a large enough effect; inconclusive means small, poorly fitted or top-dose-only effect, or another doubt; inactive means no such curve, though single readings can be large; an effect the other way counts as inactive or inconclusive;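 further: plate controls were enzyme without inhibitor for no effect and buffer without enzyme for full effect; nearly all actives have a fitted effect of over 40% in size; top concentration of the series not given in the record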
Target sequence (P25779 123-467 limits assumed): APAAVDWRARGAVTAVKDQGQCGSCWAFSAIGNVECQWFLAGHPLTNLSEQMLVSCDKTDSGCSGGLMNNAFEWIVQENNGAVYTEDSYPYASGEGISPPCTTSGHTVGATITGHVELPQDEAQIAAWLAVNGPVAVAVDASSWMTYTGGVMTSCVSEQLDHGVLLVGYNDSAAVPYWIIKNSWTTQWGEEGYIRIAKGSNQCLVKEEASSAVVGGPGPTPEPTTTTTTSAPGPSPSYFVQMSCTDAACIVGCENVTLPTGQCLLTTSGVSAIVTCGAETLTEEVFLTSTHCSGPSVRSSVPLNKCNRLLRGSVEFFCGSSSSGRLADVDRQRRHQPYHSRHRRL
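Detergent-free condition (0.00005% Triton X-100) in acetate buffer pH 5.5 with DTT. 1.5 nM enzyme and compound were pre-mixed 15 min, then 2 uM Z-FR-AMC substrate added; reaction progress from fluorescence change between first and third reads (60 s).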
Marburg entry inh = qHTS for inhibitors of binding or entry into cells for Marburg Virus. Marburg virus pseudotyped entry inhibition, cell reporter; control for the full effect not named in the record; about a third of the inactives were read at about 46 µM. Potency, µM (titrated, usually from 37.8 µM), for inactives: at the highest dose activity change, negative = inhibition, hits mostly inhibitors. hit rate 1.8% among 300,000; active = well fitted inhibition curve with a large enough effect; inconclusive = small, poorly fitted or top-dose-only effect, or effect the other way; inactive = flat fitted curve, though single readings scatter; tested in HEK293 cells; about a fifth of its hits are not listed in these tables; further: on the % scale 0 is the no-effect control and ±100 the full control effect; luciferase read-out
Cruzain Triton = qHTS Assay for Promiscuous and Specific Inhibitors of Cruzain (with detergent). hit rate 0.43% among 200,000. Cruzipain (Trypanosoma cruzi), P25779. purified cruzain, Z-FR-AMC fluorescence, 0.01% Triton. Potency, µM, inactives show max response, negative = inhibition, usual class: inhibitors; active means well fitted curve in the direction sought with a large enough effect; inconclusive means small, poorly fitted or top-dose-only effect, or another doubt; inactive means no such curve, though single readings can be large; an effect the other way counts as inactive or inconclusive;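 further: plate controls were neutral wells for no effect and buffer without enzyme for full effect; nearly all actives have a fitted effect of over 40% in size; top concentration of the series not given in the record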
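Detergent-containing run (0.01% Triton X-100) in acetate buffer pH 5.5 with 5 mM DTT: enzyme at 1.5 nM final, 15 min compound preincubation at room temperature, then 2 uM Z-FR-AMC substrate. Activity taken as 60 s fluorescence increase at 360/450 nm.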
* hit, by the source's call; ? = inconclusive; nt = not tested or not shown; & = joins results of further samples; [ ] = another dose, or the depositor's remark. Unless noted, the call rests on the fitted dose curve; in most records, active means well fitted rising curve with a large enough effect; inconclusive means small, poorly fitted or top-dose-only effect; inactive means no such curve, though single readings can be large or run the other way. Potency means the concentration at half of the fitted maximal effect.

SMILES	SARS PLpro yeast	LASV entry inh	NS1 inh	RE007 growth inh	StopGo reporter	Cruzain inh noDet	Marburg entry inh	Cruzain Triton
COc1cc(/C=N/NC(=S)NC2CC3CC2C2C=CCC32)ccc1O (stereo not given)	-4.0%	?	14.0%	-1.0%	?	nt	?	nt
COc1ccccc1NC1C=CS(=O)(=O)C1 (stereo not given)	3.3%	-1.1%	4.2%	-3.8%	-11.8%	-9.4%	13.4%	3.3%
CCC12CN3CC(C)(CN(C1)C3c1c(C)n(C)c3ccccc13)C2=O (stereo not given)	nt	nt	nt	nt	-14.4%	10.4%	?	0.6%
COc1ccccc1Nc1ncnc2sccc12	-3.8%	nt	4.8%	-8.9%	-11.9%	nt	nt	nt
CCCCN(C(=O)C1CC(=O)N(Cc2ccc(C)cc2)C1)c1c(N)n(CC(C)C)c(=O)[nH]c1=O (stereo not given)	-6.9%	-0.2%	3.4%	-8.3%	6.3%	nt	1.4%	nt
Cc1ccccc1NC(=O)Cn1c(C)nc2ccc(NC(=O)C3CC3)cc2c1=O	2.0%	-5.5%	5.9%	3.6%	nt	-8.7%	21.8%	5.5%
COc1cccc2sc(NC(=O)CS(=O)(=O)c3ccc(C)cc3)nc12	nt	0.9%[46.1 µM]	nt	nt	5.7%	?	nt	-2.4%
CC(C)N(C(=O)Cn1cnc2c(cnn2-c2ccccc2Cl)c1=O)C(C)C	1.9%	15.1%	-9.2%	3.2%	8.4%	7.4%	-0.7%	-3.9%
C=CCn1c(CCC(O)CCCCC)n[nH]c1=S (stereo not given)	13.7%	-16.3%	3.4%	15.7%	-8.0%	4.8%	5.8%	1.1%
COCCN(C(=O)CSc1nc2ccccc2c(=O)n1CC(C)C)c1c(N)n(Cc2ccccc2)c(=O)[nH]c1=O	-1.2%	-2.4%	nt	11.5%	-8.3%	nt	-0.3%[46.1 µM]	nt
O=C(Nc1ccccc1C(=O)O)C1=NN=CC1	-1.4%	13.1%[46.1 µM]	-1.7%	4.2%	14.1%	nt	0.3%[46.1 µM]	nt
Cc1ccc(NC(=O)Cn2nnc(C(=O)NCCc3ccccc3)c2N)c(C)c1	3.7%	nt	0.4%	-10.8%	-10.9%	nt	nt	nt
COc1cccc2cc(C(=O)OCC(=O)N3CC(C)OC(C)C3)c(=O)oc12 (stereo not given)	-7.8%	?	nt	26.2%	34.7%[activator]	nt	?	nt
O=C1OC(c2ccccc2)Cc2cc(C(=O)N3CCN(c4ccc(F)cc4)CC3)ccc21 (stereo not given)	9.6%	-14.7%	nt	0.9%	-16.0%	nt	-9.6%	nt
CCOC(=O)CSc1nc2cc3c(cc2c(=O)n1Cc1ccc(C(=O)NCCc2ccc(OC)c(OC)c2)cc1)OCO3	nt	0.1%[46.1 µM]	nt	nt	-14.0%	6.4%	nt	1.9%
CNC(=S)NNC(=O)c1c(C)nc2cc(C)ccn12	1.0%	5.4%[46.1 µM]	5.4%	13.9%	-11.1%	nt	7.8%[46.1 µM]	nt
CCc1ccc(NC(=O)COC(=O)c2nc3nc(C)cc(C)n3n2)cc1	1.6%	-0.8%	nt	-22.2%	-10.4%	nt	?	nt
COc1cc(NC(=O)c2ccccc2)cc(OC)c1	-5.1%	0.7%	-149.1%	-16.3%	46.5%[activator]	1.7%	-18.3%	1.0%
O=c1c2ccccc2n(CC(O)CN2CCOCC2)c2ccccc12 (stereo not given)	2.2%	?	-2.4%	8.9%	-15.6%	nt	-19.3%	nt
O=C(CCC(=O)N1CCc2ccccc2C1)N1CCN(S(=O)(=O)c2ccccc2)CC1	14.0%	-10.0%	-8.4%	16.3%	-13.0%	7.6%	-1.4%	-1.8%
CN1CCc2nc3sc(C#N)c(N)c3c(-c3cccs3)c2C1	-4.0%	7.9%	3.8%	-8.8%	-11.5%	?	18.5%&18.5%	-6.8%
CN(CC(=O)Nc1cccc(F)c1)C(=O)CCC1CCCCC1	-7.2%	-26.3%	nt	1.6%	2.4%	nt	?	nt
Cc1cc(N)n2nc(C)c(-c3ccccc3)c2n1	-45.0%	?	-180.3%	-7.2%	17.2%	-14.0%	25.0%	3.2%
Cc1ccc(S(=O)(=O)NCCCCCC(=O)Nc2ccccc2C)cc1	9.8%	-1.6%	-2.6%	-8.5%	-13.4%	-6.8%	-20.7%	-0.3%
CCCC1CC(C)(/C(C)=N\NC(N)=S)OC1=O (stereo not given)	3.2%	-16.4%[46.1 µM]	-1.5%	-5.1%	24.7%	nt	-22.7%[46.1 µM]	nt
COc1ccc(-n2cnnc2SCC(=O)NC2CCS(=O)(=O)C2)cc1 (stereo not given)	nt	7.6%	0.8%	7.7%	-11.7%	6.8%	25.4%	1.8%
CCN(Cc1ccncc1)C(=O)c1cc(COc2ccc(F)cc2F)on1	-11.4%	nt	-4.4%	1.1%	-24.2%	nt	nt	nt
Cc1cc(C)c(S(=O)(=O)Cc2ccccc2)c(=O)[nH]1	0.6%	?	0.2%	16.8%	-3.4%	nt	19.8%[46.1 µM]	nt
CCOc1ccc(OCC)c(NC(=O)CN2CCN(C(=O)c3ccco3)CC2)c1	-2.5%	-3.1%	-15.4%	-2.6%	-16.3%	-6.0%	3.4%	1.6%
Cc1ccnc(NC(=O)C2CCN(S(=O)(=O)c3cccc4nonc34)CC2)c1	8.5%	18.6%	5.6%	0.1%	?	-6.6%	-3.5%	0.4%
Cc1cc(-c2nc3ncccc3o2)ccc1NC(=S)NC(=O)c1ccco1	0.3%	-3.4%[46.1 µM]	-3.0%	0.6%	13.4%	nt	9.3%[46.1 µM]	nt
CC1(c2nnc(-c3ccc(F)cc3)o2)CC(c2cccc(Cl)c2)=NO1 (stereo not given)	-4.4%	nt	-39.5%	-1.7%	-25.8%	nt	nt	nt
CCC(C)(C)NC(=O)CN(C(=O)CCC(=O)Nc1nccs1)c1ccc2c(c1)OCO2	0.8%	22.5%	12.0%	2.0%	10.9%	nt	-1.0%[46.1 µM]	nt
NC(=O)CC[C@H](NC(=O)c1ccc(Cl)cc1)C(=O)NNC(=O)COc1cccc(Br)c1	1.1%	14.6%[46.1 µM]	nt	-7.8%	-3.4%	nt	-11.4%[46.1 µM]	nt
CC1CCCN(C(=O)c2ccc([N+](=O)[O-])o2)C1 (stereo not given)	-10.1%	nt	-34.0%	-12.0%	-22.7%	nt	nt	nt
CCOC(=O)c1cc(-c2ccc(N3CCOCC3)cc2)nn1-c1ccccc1C(=O)O	-0.1%	-12.9%[46.1 µM]	1.3%	53.4%	10.2%	nt	9.9%&9.9%[46.1 µM]	nt
C/C(=N\NC(=O)CN1CCCCC1)c1ccccc1O	-3.5%	-14.8%[46.1 µM]	2.4%	8.5%	2.6%	nt	?	nt
Cc1ccc(/C=N/N2CCN(Cc3ccc(C)cc3)CC2)cc1	-1.1%	13.6%[46.1 µM]	-5.6%	18.3%	-11.7%	nt	-5.8%[46.1 µM]	nt
CCc1ccc(NC(=O)NNC(=O)c2ccc3ccccc3c2O)cc1	0.2%	nt	25.0%	12.4%	13.6%	nt	nt	nt
O=C(c1ccccc1)c1ccc(OCC(O)CN2CCCC2)cc1 (stereo not given)	-0.9%	22.6%	5.8%	-1.9%	-8.5%	nt	-24.0%[46.1 µM]	nt
COc1cc(/C=N/n2cnc3scc(-c4cccs4)c3c2=O)cc(OC)c1OC	-6.3%	?	3.3%	-0.1%	0.0%	?	?	-7.0%
O=C(COc1ccc2ccccc2c1)NCC1CCCO1 (stereo not given)	-0.8%	6.5%[46.1 µM]	4.2%	-17.5%	4.9%	nt	23.0%[46.1 µM]	nt
COc1ccc(OC)c2[nH]c(=O)c(CCNC(=O)C(C)(C)C)cc12	-0.8%	nt	-16.2%	7.2%	-13.7%	2.8%	nt	1.6%
CCOC(=O)c1c(C)[nH]c(N=Nc2ccc(C)cc2)c1C	-6.2%	-0.8%	4.9%	2.4%	nt	-1.4%	?	-12.6%
C[N+](C)(CC#Cc1ccccc1)CC(=O)c1ccc(Cl)cc1	0.9%	9.5%	-12.1%	-10.2%	0.0%	17.6%	?	-3.8%
CCOC(=O)c1c(C)c(C(=O)Nc2cc(F)ccc2F)c(C)n1C	?	12.2%	0.4%	1.7%	13.9%	-6.0%	-28.9%	-5.1%
Cc1ccc(S(=O)(=O)N/N=C/c2ccc(OCC(=O)N3CCOCC3)cc2)cc1	-0.4%	14.8%	-11.6%	31.9%	120.5%[activator]	nt	?	nt
CCc1c(C(C)O)oc2ccc3c(C)cc(=O)oc3c12 (stereo not given)	0.4%	nt	-38.8%	nt	nt	-5.2%	0.3%	0.6%
CCOc1ccc(-n2c(C)nc3cc(C(=O)NCc4ccc(C)cc4)ccc32)cc1	nt	?	nt	nt	1.1%	29.7%	nt	-0.6%
O=C(c1cccc(S(=O)(=O)NCc2ccccc2)c1)N1CCCC(C(F)(F)F)C1 (stereo not given)	-0.8%	4.4%	nt	-24.2%	-4.7%	nt	-15.1%[46.1 µM]	nt
Carrying on.
SMILES	SARS PLpro yeast	LASV entry inh	NS1 inh	RE007 growth inh	StopGo reporter	Cruzain inh noDet	Marburg entry inh	Cruzain Triton
COc1cc(NC(=O)Cn2cc(S(=O)(=O)c3ccccc3)c(=O)c3ccccc32)cc(OC)c1	nt	-24.5%[46.1 µM]	nt	nt	21.0%	-13.6%	0.6%[46.1 µM]	-5.3%
Cc1c(C)n2c(SCC(=O)N3CC(C)OC(C)C3)nnc2[nH]c1=O (stereo not given)	2.9%	1.3%	nt	-8.0%	-10.2%	nt	25.6%[46.1 µM]	nt
COc1ccc(S(=O)(=O)NCC(=O)NCc2cc(=O)n(C)c(=O)n2C)cc1	2.0%	?	-10.5%	-5.0%	-4.0%	nt	?	nt
CC1=C(C(=O)N2CCOCC2)C(c2ccc(C)cc2)NC(=S)N1 (stereo not given)	-17.0%	9.7%[46.1 µM]	10.0%	13.6%	-5.5%	7.2%	-8.1%[46.1 µM]	-0.5%
COc1cc(OC)c(OC)cc1/C=C1\SC(N2CCCCC2)=NC1=O	-0.3%	-6.1%[46.1 µM]	1.2%	-0.5%	-1.4%	nt	2.4%[46.1 µM]	nt

Compound activity: PubChem, National Center for Advancing Translational Sciences (NCATS)

An unsorted share of the library. Share with any hit: about 4.8%.
